TAR Tat displ = HIV-1 TAR-Tat binding disruption; HIV-1 TAR RNA, Tat peptide displacement FRET; active compounds read high; actives 0.6% (n = 100,000); z-score (concentration not given with the values); AID 1259389;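 further: score is relative to mean and SD of negative controls; some compounds called inactive have numbers as strong as hits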
CDC25B-CDK2 inh = human CDC25B-CDK2/CyclinA binding inhibition; z-score (no concentration beside the values); P30305+P24941; actives 0.72% (n = 94,000); HTRF CDC25B-CDK2/CyclinA binding, anti-His/anti-Flag; active compounds read high;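 further: score is relative to mean and SD of negative controls; strong numbers were not always called active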
* marks the source's active call; other numbers are inactive results; . = no result given.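 How the source made its calls: active means z-score from 3 up in half or more of its runs; inactive means the rest.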

Second line of a record: TAR Tat displ, CDC25B-CDK2 inh
COc1ccc(-n2ccc(=O)c(C(=O)Nc3ccccc3OC)n2)cc1
→ -0.38, 0.38
CCS(=O)(=O)NCc1nnnn1-c1ccc(Cl)cc1
→ 1.8, .
COc1cccc(-c2noc(N3CCc4ccccc4C3)n2)c1
→ -0.18, .
CNS(=O)(=O)c1ccc(C)c(-c2nnc3c4ccccc4c(C)nn23)c1
→ -0.14, -0.24
NC(=NC(=O)CCn1c(=O)oc2ccccc21)c1cc(Cl)cc(Cl)c1
→ ., -0.72
CC(NC(=O)C1CCCN(C(=O)c2cc3sccc3n2C)C1)c1ccc2c(c1)OCCO2 (configuration not stated)
→ ., -1.6
COc1ccc(-n2cc(-c3ccc(OC)c(OC)c3)[nH]c2=O)cc1
→ 0.85, -1.2
O=S(=O)(c1ccc2[nH]ccc2c1)N1CCCC1
→ 0.92, 0.13
CCSc1ncc2c(=O)n(CC(=O)Nc3ccc(F)cc3F)cnc2n1
→ 0.75, .
CC1C(=O)N(C)c2ccc(S(=O)(=O)N3CCOCC3)cc21 (configuration not stated)
→ ., -2
CNC(=O)c1ccccc1Sc1ccccc1COC(C)=O
→ ., -1.2
Cc1[nH]c(C)c(S(=O)(=O)NC2CCCc3ccccc32)c1C(=O)N1CCCCC1 (configuration not stated)
→ -0.03, .
O=C(CN1C(=O)CC(c2ccco2)Sc2ccccc21)Nc1cccc(Cl)c1 (configuration not stated)
→ ., -0.16
CCCS(=O)(=O)c1nc(S(=O)(=O)c2ccc(C)cc2)c(N2CC(C)OC(C)C2)s1 (configuration not stated)
→ 0.56, -0.53
Cc1oc(C(C)(C)C)cc1-c1cc(N)n(C)n1
→ ., -0.79
CCCC(CC(=O)O)(C(=O)O)c1ccccc1 (configuration not stated)
→ ., 0.22
Cc1ccc(NS(=O)(=O)c2ccc3c(c2)CC(C)N3C(=O)C2CCC2)c(C)c1 (configuration not stated)
→ -0.11, .
Cc1ccc(S(=O)(=O)n2nc(-c3ccccc3)cc2N)cc1
→ ., -1.9
CC(=N\Nc1c(Cl)cc(Cl)cc1Cl)/C(=N\O)C(=O)Nc1ccccc1
→ ., -1.4
Cc1nc2sccn2c(=O)c1S(=O)(=O)NCc1ccco1
→ -1.1, .
COC(=O)Cc1nc(Nc2ccccc2)sc1C
→ ., -1.6
Cc1nc(-c2ccc(S(=O)(=O)Nc3cccc(C)c3C)cc2)co1
→ 1.4, .
COC(=O)c1c(NC(=O)C(C)C)sc2c1CCC2
→ 1, -2.5
CCCCSCCCNC(=O)Nc1ccc(Cl)cc1
→ 0.9, .
CCSc1nnc(NC(=O)CSc2nc3c(c(=O)n2CC)SCC3)s1
→ 1.5, -0.7
COCCCNC(=O)Cn1c(C(=O)OC)ccc1-c1ccco1
→ -1.4, .
CC1CCCN(S(=O)(=O)c2ccc3c(c2)CCN3C(=O)CCC(=O)O)C1 (configuration not stated)
→ -0.21, -3.4
NC(=O)CSc1nnc2n(Cc3ccccc3)c(=O)c3c(n12)-c1ccccc1CC31CCCCC1
→ 1.7, -2.1
Clc1cccc(-n2ncc3c(NCc4ccccc4)ncnc32)c1
→ 0.05, .
CCOC(=O)C1CCN(S(=O)(=O)c2c[nH]c(C(=O)OC)c2)CC1
→ 1.3, .
CC(=O)Nc1ccc(N2C(=O)CC(N3CCCC(C)C3)C2=O)cc1 (configuration not stated)
→ 0.6, -2.1
O=C1CC(=O)Nc2cc(S(=O)(=O)Nc3cc(F)ccc3F)ccc2N1
→ ., 0.09
O=c1cc(-c2cc3ccccc3o2)oc2ccccc12
→ ., -1.1
Cc1c(C(=O)O)sc2ncnc(NCc3ccc4c(c3)OCO4)c12
→ 5*, .
Cc1ccc(CNC(=O)c2cc3c(s2)-c2ccsc2CC3)o1
→ -0.53, .
COc1ccccc1Nc1ncnc2sc(C)c(S(=O)(=O)N3CCC(C)CC3)c12
→ ., -0.99
COc1cc(OC)c(NC(=O)N2CCCC2c2cccs2)cc1Cl (configuration not stated)
→ 0.37, -2.1
Cc1n[nH]c(C)c1C(=O)CC1(O)C(=O)N(CCc2ccccc2)c2ccc(Br)cc21 (configuration not stated)
→ -0.25, -0.39
Cc1cc2n(n1)CCC(=O)N2CC(=O)NC(C)C
→ 1.6, .
O=C(Nc1cc(C(F)(F)F)ccc1OCC(F)(F)F)C(Cl)(Cl)Cl
→ ., -0.24
Cc1cc2n(n1)CCCN2C(=O)CCC(=O)NCCCN1CCC(N2CCCCC2)CC1
→ 1.3, .
O=C(O)c1ccc2nsnc2c1
→ 2, -1.8
O=C(Nc1nc2c(s1)CCc1ccccc1-2)c1ccc([N+](=O)[O-])s1
→ 2.3, -1.1
CN(C(=O)c1ccc(F)cc1)c1nc(-c2ccc(Cl)s2)cs1
→ ., -0.59
CCOC(=O)c1nc(N2CCN(c3ccc(F)cc3)CC2)c2c(C)noc2n1
→ 1.4, .
CC(C)Cc1ccc(S(=O)(=O)N2CCC(C)CC2)cc1
→ -0.39, -1.3
CCCCc1ccc2nc(NC(=O)c3sc(C)nc3C)sc2c1
→ 0.84, 1.8
Cc1ccc(C(=O)Nc2c3c(nn2C(C)(C)C)CS(=O)(=O)C3)cc1
→ 0.55, .
COC(=O)C[C@@H]1C2(C)C(=O)[C@@H](CC3=C4C=C(OC)O[C@@H](c5ccoc5)[C@]4(C)CCC32)[C@H](O)C1(C)C (some centres not stated)
→ 0.56, .
Cc1cc(C)cc(NS(=O)(=O)c2cc(-c3ccc(=O)[nH]n3)cc(C)c2C)c1
→ 1.7, .
CCc1nnc2sc(-c3cc4ccccc4o3)nn12
→ -0.23, -0.69
CCCCN1C=NS(=O)(=O)c2ccc(C)cc21
→ 0.09, .
CC(Oc1ccc2c3c(c(=O)oc2c1)CCC3)C(=O)OC1CCCCC1 (configuration not stated)
→ ., 0.87
CC(C)c1ccc(S(=O)(=O)N2CCCC(c3nc(-c4cccnc4)no3)C2)cc1 (configuration not stated)
→ 2.3, .
O=S(=O)(NCC(c1cccnc1)N1CCc2ccccc2C1)c1cccs1 (configuration not stated)
→ 0.9, -0.29
COc1cc(C(=O)Nc2nc(CC(C)=O)ns2)cc(OC)c1OC
→ ., -0.33
Cc1nc(Nc2cccc(O)c2)c2c3c(sc2n1)CCCC3
→ 1, .
Cc1cc(C)c(C(=O)CC2(O)C(=O)Nc3ccc(Br)cc32)c(C)c1 (configuration not stated)
→ ., -0.15
Cc1[nH]c(=O)[nH]c(=O)c1S(=O)(=O)N1CCN(c2ccccc2)CC1
→ 1.4, .
O=C(O)CSCC(=O)Nc1cccc(F)c1C(=O)O
→ ., -1.8

Part of the list above, as a markdown table:
| mol | TAR Tat displ | CDC25B-CDK2 inh |
| --- | --- | --- |
| COC(=O)C[C@@H]1C2(C)C(=O)[C@@H](CC3=C4C=C(OC)O[C@@H](c5ccoc5)[C@]4(C)CCC32)[C@H](O)C1(C)C (some centres not stated) | 0.56 | . |
| Cc1cc(C)cc(NS(=O)(=O)c2cc(-c3ccc(=O)[nH]n3)cc(C)c2C)c1 | 1.7 | . |
| CCc1nnc2sc(-c3cc4ccccc4o3)nn12 | -0.23 | -0.69 |
| CCCCN1C=NS(=O)(=O)c2ccc(C)cc21 | 0.09 | . |
| CC(Oc1ccc2c3c(c(=O)oc2c1)CCC3)C(=O)OC1CCCCC1 (configuration not stated) | . | 0.87 |
| CC(C)c1ccc(S(=O)(=O)N2CCCC(c3nc(-c4cccnc4)no3)C2)cc1 (configuration not stated) | 2.3 | . |
| O=S(=O)(NCC(c1cccnc1)N1CCc2ccccc2C1)c1cccs1 (configuration not stated) | 0.9 | -0.29 |

More entries:
Second line of a record: TAR Tat displ, CDC25B-CDK2 inh
COC(=O)CN(c1cccc2ccccc12)S(C)(=O)=O
→ 2.2, -0.62
O=C(c1cnn(-c2ccc(F)cc2)c1-n1cccc1)N1CCN(C2CCCCC2)CC1
→ 0.18, .
COc1ccc(N2C(=O)CCC(C(=O)N3CCCC3)C2c2ccc(F)cc2)cc1 (configuration not stated)
→ ., 0.44
Cn1c(=O)oc2cc(S(=O)(=O)N3CCC(C(=O)Nc4ccc(F)c(F)c4)CC3)ccc21
→ 0.34, -1.4
O=C(CSc1nc2ccccc2s1)Nc1nc2ccc([N+](=O)[O-])cc2s1
→ ., -9.8
CN1C(C(=O)Nc2cnn(Cc3ccc(F)cc3)c2)=CC(c2ccc(F)cc2)=NS1(=O)=O
→ 1.8, -1.1
Cn1c(=O)c2c(-c3ccccc3Cl)c(Nc3ccccc3)oc2n(C)c1=O
→ 0.54, .
CCOC(=O)c1sc2ncnc(Oc3ccccc3)c2c1C
→ 1.8, .
Clc1cccc(N2CCN(c3nnc4n3CCCCC4)CC2)c1
→ -0.09, -0.64
Oc1ccccc1-c1nc(-c2cccs2)c(-c2cccs2)[nH]1
→ -0.47, 18*
Cc1nc(CNC(=O)[C@H]2CSCN2S(=O)(=O)c2ccc(F)cc2)cs1
→ 0.55, .
CCCCNCC(=O)c1c(N)n(C)c(=O)n(C)c1=O
→ 2.1, -0.6
O=C1c2cccnc2C(Nc2ccc(Cl)cc2)N1Cc1ccco1 (configuration not stated)
→ -0.51, -1.9
CN1C(C(=O)NCc2ccccc2)=CC(c2ccco2)=NS1(=O)=O
→ 1.6, -1.6
CC(C)(C)c1nnc2sc(COc3ccccc3Cl)nn12
→ -1.5, -0.44
O=C(NCC1CCCO1)c1c(NC(=O)c2nn(-c3ccc(Cl)cc3)ccc2=O)sc2c1CCC2 (configuration not stated)
→ 1.1, 0.38
O=C(C1CCN(c2nc3cccnc3s2)CC1)N1CCCC1
→ 0.78, .
C=CCNc1cc(C)nc2ccc(C)cc12
→ 0.31, -1.2
Cc1ccnc(N2C(=O)c3ccccc3C2Nc2ccc(Br)cc2F)c1 (configuration not stated)
→ -0.72, -1
O=S1(=O)NC(=NCCCCCCO)c2ccccc21
→ ., 0.97
CCc1ccc(S(=O)(=O)c2nnn3c2nc(N2CCOCC2)c2cc(Cl)ccc23)cc1
→ 0.51, -1.3
N#C/C(=C\Nc1ccccn1)C(=O)c1ccccc1
→ ., 2.3
O=C(Nc1ccc(-c2nc3ccccc3s2)cc1)c1cccc2c1OCCCO2
→ ., -3.7
CNC(=O)NNC(=O)c1csc(Cc2c(Cl)sc3ccc(Cl)cc23)n1
→ ., -1.7
Cc1cccc(CSc2ncc(CO)n2Cc2ccccc2)c1
→ 0.88, .
CSc1nc2c(c(=O)[nH]1)C(c1cccc(F)c1F)CC(=O)N2 (configuration not stated)
→ 0.46, -1.3
CCC1CN(C(=O)NCc2ccco2)c2ccccc2O1 (configuration not stated)
→ 1.8, .
O=C(Nc1nc2ccccc2s1)C1CCN(c2ncnc3c2nc2n3CCCCC2)CC1
→ -0.16, .
O=S(=O)(c1ccc2nc(Nc3ccccc3)ccc2c1)N1CCCCC1
→ 0.98, .
Cn1c(=O)c(=O)n(C)c2cc(N3CCCCC3)c(NC(=O)c3cccs3)cc21
→ 0.09, -0.86
CCC1C(=O)N=C(SCC(=O)Nc2ccc(Br)cn2)NC1=O (configuration not stated)
→ 1.5, -0.99
CC1CCCCC1NS(=O)(=O)c1ccc2c(c1)CC(=O)N2C (configuration not stated)
→ 0.31, .
COc1ccc(C(=O)Nc2cnc3ccccn3c2=O)cc1
→ -0.54, -0.72
COc1ccc(/C=C/c2nc(C#N)c(N(C)Cc3ccccc3)o2)cc1OC
→ -0.24, -0.77
CCOC(=O)N1CCC(Nc2c(NCC3CCCO3)c(=O)c2=O)CC1 (configuration not stated)
→ 1.9, -1.2
c1ccc(-c2ccc(CNCCSc3nnnn3-c3ccccc3)o2)cc1
→ 1, 0.39
Cc1ccc2oc(-c3cc(NC(=O)/C=C/c4ccccc4)ccc3O)nc2c1
→ ., -1.4
O=c1cc(-c2ccccc2)nc2nc(CCc3ccccc3)[nH]n12
→ 2.9, -2.3
O=C(O)C1CCCCN1c1cnnc2c(Cl)cccc12 (configuration not stated)
→ 0.19, 0.09
CCc1c(CN2CCN(c3cccc(C)c3)C(C)C2)csc1C (configuration not stated)
→ 1.8, .
Cc1ccc(S(=O)(=O)NC(=O)Nc2ccc3c(c2)C(=O)OC3)cc1
→ ., -2.3
CCN(CC)CCNC(=O)C(=O)NCc1n[nH]c(=O)c2ccccc12
→ 1.9, .
Cc1nc2c(c(C)nn2C(C)(C)C)c(C)c1CCC(=O)NCCCOC(C)C
→ 0.57, -0.81
CC12CN3CC(C)(CN(C1)C3c1c[nH]c3ccccc13)C2=O (configuration not stated)
→ ., -0.59
CCOC(=O)C(C#N)C(=S)Nc1ccccc1 (configuration not stated)
→ ., -1.5
CC(C)c1ccc(C(=O)CC2(O)C(=O)Nc3ccccc32)cc1 (configuration not stated)
→ 1.2, -0.43
CC(C)Cn1c(=O)c2ccc(C(=O)NC3CCCCC3)cc2n2c(=O)[nH]nc12
→ 2.3, 0.52
O=c1[nH]nc(SCc2csc(-c3ccccc3)n2)n1Cc1ccco1
→ ., -0.14
COc1ccccc1-n1cc[nH]c(=O)c1=O
→ 1.8, -1.4
Cc1ccc2c(c1)N1C(=O)c3ccccc3C1C1=C(CC(C)(C)CC1=O)N2 (configuration not stated)
→ ., -0.84
CC1CCCCN1c1csc2ccc(Cl)cc2c1=O (configuration not stated)
→ -0.17, .
CCn1cc(NC(=O)NCc2cccs2)c(=O)c2ccc(C)nc21
→ -0.44, -0.17
O=C(Cn1c(=O)oc2ccccc21)N1CCN(c2ccccn2)CC1
→ 1.7, .
O=C(OCCN1CCN(C2=NS(=O)(=O)c3ccccc32)CC1)c1cccc2ccccc12
→ 2, -2
Cc1ccc(C2Nc3c(ccc(C(=O)O)c3C)C3C=CCC32)cc1 (configuration not stated)
→ ., -0.93
CCOC(=O)C1CCN(S(=O)(=O)c2ccc3oc4ccccc4c3c2)CC1
→ ., -3
CCCn1ccc2cc(S(=O)(=O)N3CCN(C(=O)NC4CCCCC4)CC3)ccc21
→ 0.43, -0.49
Cc1cc(C)n(-c2nnc(Nc3ccc4c(c3)OCCO4)c3ccccc23)n1
→ 0.55, .

High-throughput results as filed in PubChem BioAssay.
